# gsp ag – qHTS for Agonist of gsp, the Etiologic Mutation Responsible for Fibrous Dysplasia/McCune-Albright Syndrome: qHTS; Potency, µM (highest dose often 76.9 µM), for the others: at the top dose activation (cAMP increase), hits mostly activators; gsp mutant cells, cAMP HTRF, 30 min; control for the full effect not named in the record; actives 0.13% (n = 340,000); active = well fitted activation curve with a large enough effect; inconclusive = small, poorly fitted or top-dose-only effect, or another doubt; inactive = no such curve, though single readings can be large or run the other way; cell line not stated here;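 note: phosphodiesterase inhibitor Ro 20-1724 added with compounds to block cAMP breakdown; potency is the fitted concentration of half-maximal effect; nearly all actives have a fitted effect of over 60% in size; about a fifth of the inactives were tested at one dose only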
#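 Cells stably selected in G418 were plated at 2000/well, grown 16-24 hr, then given compounds in DMSO with the PDE inhibitor […] (300 uM solution added) for 30 min at 37C; cAMP was read by HTRF.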
# Sfp inh – qHTS Assay for Inhibitors of Bacillus subtilis Sfp phosphopantetheinyl transferase (PPTase). 4'-phosphopantetheinyl transferase ffp (Bacillus subtilis), Q9F4F7. Biochemical Sfp PPTase activity, qHTS. Potency, µM, for the others: max response, negative = inhibition, hits mostly inhibitors. actives 3.5% (n = 310,000); active = well fitted inhibition curve with a large enough effect; inconclusive = small, poorly fitted or top-dose-only effect, or another doubt; inactive = no such curve, though single readings can be large or run the other way;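 note: the enzyme is Sfp with the accession as filed and its product quenches rhodamine fluorescence; potency is the fitted concentration of half-maximal effect; 0% = enzyme reaction without inhibitor and -100% = no enzyme wells; top concentration of the series not given in the record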
#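 Compounds were incubated with enzyme (final 15 nM) for 15 min at room temperature before substrate addition started the reaction. Fluorescence at 525 nm excitation, 598 nm emission was recorded immediately and after 30 minutes.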
# gsp antag – qHTS for Antagonists of gsp, the Etiologic Mutation Responsible for Fibrous Dysplasia/McCune-Albright Syndrome: qHTS; gsp-mutant cells, cAMP HTRF, 30 min; control for the full effect not named in the record; Potency, µM (highest dose often 76.9 µM), for the others: top-dose activity change, negative = inhibition, actives largely listed as inhibitors; actives 0.4% (n = 340,000); active = falling curve of any shape with a large fitted effect; inconclusive = falling curve, mostly with a smaller effect; inactive = flat or rising curve; cell line not stated here;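 note: intracellular cAMP measured with PDE inhibitor Ro 20-1724 present during compound exposure; potency is the fitted concentration of half-maximal effect; % is set by controls: 0 for no effect and ±100 for the full control effect; nearly all actives have a fitted effect of over 65% in size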
#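 Measurement of cellular cAMP by homogeneous time-resolved fluorescence following a 30 min compound exposure at 37C. The PDE inhibitor […] was present throughout; the assay buffer was DPBS with 0.05% BSA and 0.005% Tween 20.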
# ClpP mod – qHTS Assay for Activators of ClpP; actives 1.9% (n = 340,000); purified B. subtilis ClpP, FRET peptide cleavage, 20 min; ATP-dependent Clp protease proteolytic subunit (Bacillus subtilis (strain 168)), P80244; Potency, µM (series often up to 57.5 µM), without a hit: top-dose activity change, negative = active; AID 651965, 2013; active = well fitted falling curve with a large enough effect; inconclusive = small, poorly fitted or top-dose-only effect; inactive = no such curve, though single readings can be large or run the other way; note: potency is the fitted concentration of half-maximal effect; the source files actives as falling curves though it sought activators and does not explain the sign; nearly all actives have a fitted effect of over 65% in size; many hits overshoot -100%
# Target sequence (P80244 whole entry, looked up): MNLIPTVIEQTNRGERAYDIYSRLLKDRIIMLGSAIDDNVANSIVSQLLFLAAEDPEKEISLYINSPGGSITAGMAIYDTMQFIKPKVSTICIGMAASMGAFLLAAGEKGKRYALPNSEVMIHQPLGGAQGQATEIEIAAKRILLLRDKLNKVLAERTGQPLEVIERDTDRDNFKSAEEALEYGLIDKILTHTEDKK
#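 FRET quenching reversal measured ClpP activation: 10 microg/mL B. subtilis ClpP at pH 8 with the FRET-FV decapeptide, read at 430 nm after 320 nm excitation. The 20-min minus 0-min signal was scaled between DMSO/no-enzyme wells and ADEP (5.8 microM final).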
# TRPV1 PAM – HTS Assay for Compounds that Act as Potentiators of the Vanilloid Receptor 1. potentiation, % at 8.33 µM. actives 0.02% (n = 320,000). AID 540277, 2011. TRPV1-expressing cells, Fluo-8 calcium influx, capsaicin EC20 potentiation; host cell line not named in the record; control for the full effect not named in the record; active means potentiation above 80%; inconclusive means 30% to 80%; inactive means below 30%; note: 0% is about no effect
#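 Fluo-8 calcium influx in TRPV1-expressing cells, kinetic read (ex 480/em 520 nm). Compound added and read 3 min for agonist activity, followed by capsaicin at EC20 final and 2 min further read for enhancement.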
# TRPML1 inh – qHTS for Inhibitors of the Human Mucolipin Transient Receptor Potential 1 (TRPML1) | actives 0.02% (n = 390,000) | activity change, negative = inhibition, % (concentration not given with the values) | TRPML1-inducible cells, Ca2+ dye fluorescence, FDSS; hits give low values; inhibition of EC80 agonist-evoked calcium signal | Mucolipin-1 (Homo sapiens), Q9GZU1; in the data active means activity change below about -50%; inconclusive means about -30% to -50%; inactive means above about -30%;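 note: stimulus is agonist 54-4 at its EC80 concentration; % is set by controls: 0 for no effect and ±100 for the full control effect; compound concentration not given in the record; the text of the record puts the active cut at -80%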
# Target sequence (Q9GZU1 whole entry, looked up): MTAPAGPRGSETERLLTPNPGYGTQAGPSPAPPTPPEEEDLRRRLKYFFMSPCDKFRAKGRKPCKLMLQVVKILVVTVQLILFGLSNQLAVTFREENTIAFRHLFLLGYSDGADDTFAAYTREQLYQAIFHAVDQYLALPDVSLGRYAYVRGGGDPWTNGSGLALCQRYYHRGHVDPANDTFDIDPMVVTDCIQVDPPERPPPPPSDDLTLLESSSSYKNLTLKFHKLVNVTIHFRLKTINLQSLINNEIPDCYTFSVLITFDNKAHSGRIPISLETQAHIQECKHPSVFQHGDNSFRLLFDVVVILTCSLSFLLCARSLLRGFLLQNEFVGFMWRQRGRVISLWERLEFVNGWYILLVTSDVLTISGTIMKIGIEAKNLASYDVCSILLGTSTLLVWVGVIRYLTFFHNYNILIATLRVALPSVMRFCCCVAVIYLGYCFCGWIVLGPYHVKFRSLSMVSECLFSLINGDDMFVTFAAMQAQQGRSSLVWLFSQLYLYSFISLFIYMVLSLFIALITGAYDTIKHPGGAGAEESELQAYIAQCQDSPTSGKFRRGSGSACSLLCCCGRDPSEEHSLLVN
#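 Tet-induced TRPML1-DL cells loaded with Ca8 no-wash calcium dye were read kinetically on FDSS. Compound addition was followed by EC80 agonist 54-4 (4 uM final); inhibition was read over 110 s.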
# Menin-MLL FL inh – qHTS Assay for Inhibitors Targeting the Menin-MLL Interaction in MLL Related Leukemias: Competition With Fluorescein Labeled MLL-derived Peptide; Fluorescence polarization, fluorescein-MLL peptide displacement from menin; FP activity change, % at 61.4 µM; 290,000 tested, under 10 active; AID 1766, 2009; inconclusive = falling polarisation curve, or a change in total fluorescence; inactive = total fluorescence flat and polarisation flat or rising; no compound was filed as active; the % refers to the polarisation; negative = inhibition;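 note: % of control where 0% means no effect; inhibitors lower the polarisation; unlabelled MLL peptide was the positive control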
# The depositor's hits bear a star; ? = inconclusive; / = not tested or not shown; [ ] = dose if it differs, or a comment.
SMILES,gsp antag,Menin-MLL FL inh,gsp ag,ClpP mod,TRPV1 PAM,Sfp inh,TRPML1 inh
COc1ccc(OCc2cc(C(=O)NCCN3CCCc4ccccc43)no2)c(Cl)c1,-14.0%,/,-134.8%[inhibitor],-3.4%,-17.1,3.8%,-14.4
NS(=O)(=O)c1ccc(CCNC(=O)CCCC2=NS(=O)(=O)c3ccccc3N2)cc1,6.0%,0.2,8.6%,-1.5%,16.4,2.6%,2.2
CCOc1ccc(-n2nnnc2SCC(=O)Nc2cccc(O)c2)cc1,-1.5%,3.9,0.4%,-3.0%,-19.3,-0.9%,-7.8
COc1ccc2c(c1OC)C(=O)OC2Nc1nc(-c2ccc([N+](=O)[O-])cc2)cs1 (configuration not stated),0.3%,-0.3,?,/,-17.2,-2.7%,17.0
O=C(Nc1cnn(Cc2ccccc2)c1)NC12CC3CC(CC(C3)C1)C2,-20.1%,1.1,?,0.7%,-22.0,-13.4%,6.6
CCC[C@@H](CN1CCC[C@H]1CN1C(N)=NC[C@H]1C(C)C)N1C[C@@H]([C@H](C)CC)N(CCCC2CCCC2)C1=N,-0.9%,/,/,-1.7%,/,/,37.7
CCN(CC)c1nc(OC)nc(-n2nnc(C(C)=O)c2C)n1,18.3%,1.7,?,-2.6%,-0.2,6.1%,-11.1
COCCNC(=O)Cn1c(=O)n(Cc2ccc(C(=O)NCc3ccco3)cc2)c(=O)c2ccccc21,8.3%,-2.2,-9.7%[15.4 µM],-18.0%,-1.2,?,-6.0
CCN(C(=O)COC(=O)c1cc(S(=O)(=O)Nc2c(C)n(C)n(-c3ccccc3)c2=O)ccc1Cl)C1CCCCC1,?,0.3,-15.2%,/,11.9,-7.3%,1.4
CC(=O)N(CC1CCCO1)c1nnc(-c2cnccn2)s1 (configuration not stated),11.7%,1.2,6.6%,?,16.9,18.1%,19.1
Cc1cc(C)c(S(=O)(=O)NCC(=O)NCc2cc(=O)n(C)c(=O)n2C)c(C)c1,10.4%,-5.5,38.6%,-2.5%,2.4,9.0%,12.5
Nc1c(C(=O)NCC2CCCO2)c2nc3ccccc3nc2n1/N=C/c1ccncc1 (configuration not stated),11.4%,/,-27.0%,-3.2%,/,/,/
Cc1ccc(C)c(/C(O)=C2\C(=O)C(=O)N(Cc3cccnc3)C2c2cccnc2)c1 (configuration not stated),18.9%,0.7,?,-0.8%,-7.7,-27.5%,4.2
CC(C)c1onc(C(=O)NC(C)c2ccccc2)c1[N+](=O)[O-] (configuration not stated),-21.0%,-4.6,-139.0%[inhibitor],1.8%,-18.1,7.4%,-1.4
O=C(CSc1nc(-c2ccco2)cc(C(F)(F)F)n1)Nc1ccc(C(=O)N2CCCCC2)cc1,-18.1%,9.5,-0.3%,-1.6%,/,-16.2%,2.6
O=C(Nc1ccc(Cl)cc1)C1C2C=CC3(O2)C1C(=O)N(CCN1CCCCC1)C3C(=O)NC1CCCCC1 (configuration not stated),6.3%,-2.8,27.9%,/,8.3,20.5%,-12.9
CC(NCC(O)COCc1cccs1)C1CC2CCC1C2 (configuration not stated),-2.9%,2.9,-46.9%[inhibitor],0.2%,1.7,4.4%,0.0
Cc1cc(NC(=O)c2ccc3c(c2)C(=O)N(CCC(C)C)C3=O)no1,10.7%,2.8,-37.0%[inhibitor],2.0%,7.7,18.5%,1.5
NCCCn1c(C(=O)c2ccc(Cl)cc2)c2ccc([N+](=O)[O-])cc2[n+]1[O-],2.7%,/,/,-3.6%,-6.4,/,0.0
CS(=O)(=O)c1nc(-c2ccccc2)cc(-c2ccccc2)c1C#N,-15.3%,-2.8,-18.1%,?,-7.9,15.6%,5.2
O=C(NNC(=O)C1C2CCCCC21)c1coc(=O)c(Br)c1 (configuration not stated),-1.4%,?,28.8%,3.7%,13.1,0.2%,-5.7
O=C(CCNC(=O)Cn1ccc2ccccc2c1=O)NCCc1ccc(Cl)cc1,5.1%,8.5,-11.2%,-11.9%,6.4,8.4%,-18.6
O=C(c1ccccc1)N1CCN(C(=O)c2ccc(OC(F)(F)F)cc2)CC1,-8.2%,-0.5,-4.4%,20.6%,-2.8,-5.8%,-5.4
CN(C)C(CNC(=O)CNC(=O)Cc1cccc2ccccc12)c1ccccc1 (configuration not stated),4.9%,1.3,6.1%,/,?,3.0%,-15.7
COC(=O)c1cc(C(=O)OCC(=O)NC(=O)c2ccccc2)cc([N+](=O)[O-])c1,0.5%,/,20.8%[15.4 µM],/,24.3,/,-1.8
COc1ccc(OC)c(Cc2nnc(CCC(=O)NC3CCCCC3)o2)c1,1.3%,-0.1,-17.8%,-0.1%,8.5,14.5%,6.4
COc1ccc(NS(=O)(=O)c2ccc(N3CCN(CCO)CC3)c([N+](=O)[O-])c2)cc1,0.9%,/,-23.7%[15.4 µM],-13.6%,-2.2,-0.8%,2.3
CC(Sc1nc(-c2ccc(F)cc2)cs1)C(=O)N1c2ccccc2CC1C (configuration not stated),-24.5%,-1.0,17.3%[15.4 µM],/,-2.9,5.1%,-6.3
CC(=O)c1ccc(NC(=S)NC2CCCC(C)C2C)cc1 (configuration not stated),1.4%,1.3,22.4%[15.4 µM],/,1.9,-4.1%,3.0
COc1cccc(-c2cc(C(=O)NCc3ccco3)no2)c1,12.9%,-0.8,8.9%,1.5%,6.3,-4.1%,7.0

# By substructure, those above containing an aryl thioether with sulfur outside any ring (3)
SMILES,gsp antag,Menin-MLL FL inh,gsp ag,ClpP mod,TRPV1 PAM,Sfp inh,TRPML1 inh
CCOc1ccc(-n2nnnc2SCC(=O)Nc2cccc(O)c2)cc1,-1.5%,3.9,0.4%,-3.0%,-19.3,-0.9%,-7.8
O=C(CSc1nc(-c2ccco2)cc(C(F)(F)F)n1)Nc1ccc(C(=O)N2CCCCC2)cc1,-18.1%,9.5,-0.3%,-1.6%,/,-16.2%,2.6
CC(Sc1nc(-c2ccc(F)cc2)cs1)C(=O)N1c2ccccc2CC1C (configuration not stated),-24.5%,-1.0,17.3%[15.4 µM],/,-2.9,5.1%,-6.3

# Next results
SMILES,gsp antag,Menin-MLL FL inh,gsp ag,ClpP mod,TRPV1 PAM,Sfp inh,TRPML1 inh
O=C(CO)N/N=C/c1c2ccccc2cc2ccccc12,-13.4%,5.5,-8.8%[15.4 µM],/,4.2,12.0%,-6.4
Cc1nc(Cl)c(C(=O)NC(=O)NCc2ccccc2)c(C)c1Cl,4.4%,2.9,-2.3%[15.4 µM],-2.0%,-5.7,4.4%,-26.8
COc1cccc(NC(=O)CSc2nc3c(sc4ccccc43)c(=O)n2CCCN2CCCC2)c1,-3.2%,1.8,3.6%,3.8%,21.0,?,-10.7
CCn1c(=O)c(C(=O)NCc2ccccn2)c(O)c2ccccc21,2.1%,0.3,-0.5%,-22.1%,?,8.7%,14.4
CC1=C(OC(=O)c2ccccc2)C(C)(C)C(c2ccccc2)OC1=O (configuration not stated),-2.9%,2.4,0.8%,0.5%,?,-11.6%,30.7
CN(c1ccccc1)S(=O)(=O)c1ccc(C(=O)N2CCCC2)cc1,-7.4%,/,-4.7%,0.8%,-5.8,/,-12.6
CCOc1ccc(CC(=O)Nc2c(C(N)=O)oc3ccccc23)cc1OCC,-5.6%,1.0,?,1.5%,-1.6,22.1%,8.1
CC(=O)c1sc2nc(CSc3nncn3C)[nH]c(=O)c2c1C,-12.6%,?,-7.0%[15.4 µM],/,-5.8,-2.8%,41.6
CC1(C)CC(=O)C2=C(C1)Nc1ccccc1N(C(=O)C1CC1)C2c1ccco1 (configuration not stated),9.2%,-1.9,-11.8%,-9.4%,3.4,-26.0%,-10.4
Cc1cc(C)c(NC(=O)CSc2nc3ccc(N4C(=O)c5ccccc5C4=O)cc3s2)c(C)c1,/,0.0,-0.8%[15.4 µM],/,10.4,12.5%,21.7
C=C(C)CSc1[nH]c(=O)cc(C)c1C#N,5.0%,5.8,-28.1%,/,3.4,-1.7%,21.8
Cc1ccc(OC(=O)c2cccc(C(=O)Oc3ccc(C)cn3)n2)nc1,/,3.8,/,/,4.5,50.1µM*,/
O=C(Nc1ccc(F)cc1)N1CCN2C(=O)c3ccccc3C12c1ccccc1 (configuration not stated),-2.8%,0.3,-20.7%,3.98µM*,-13.8,15.7%,0.9
CCOC(=O)C1(CCCc2ccccc2)CCN(C(=O)CCCn2cncn2)CC1,-5.2%,-7.1,-1.2%,/,-21.0,9.4%,13.0
COc1ccccc1C(C)NC(=O)CCNC(=O)c1ccc(Cl)cc1 (configuration not stated),10.6%,/,22.4%,-0.5%,/,/,13.3
Cc1nnc(C)n1/N=C/c1ccccn1,7.5%,4.9,1.2%,1.0%,-3.3,12.1%,-2.0
CCOCCn1cnc2sc(C(=O)Nc3nc(C)c(C(=O)OCC)s3)c(C)c2c1=O,/,2.8,/,/,1.6,12.1%,/
COc1ccc2[nH]c(=O)c(CN(Cc3cccs3)S(=O)(=O)c3c(C)ccc4nsnc34)cc2c1,-6.0%,-0.6,15.9%,-4.1%,-2.0,24.1%,-6.1
NC(=O)CC(NC(=O)Cc1cccc2ccccc12)c1ccc(NC2CCCC2)c([N+](=O)[O-])c1 (configuration not stated),7.2%,/,6.0%,0.4%,/,/,13.4
O=S(=O)(c1cccs1)N1CN(CC2CCCO2)c2nc3ccccc3nc21 (configuration not stated),-6.8%,2.0,5.8%,?,-10.7,-2.6%,7.0
COc1ccc(-n2c(COc3ccccc3)nnc2SCc2ccc(C#N)cc2)cc1,?,2.6,20.5%,-0.2%,-8.8,8.7%,6.0

# Hits appear at their usual frequency; about 4.9% have a hit in one of these screens.
